# High-throughput results from PubChem BioAssay.
# Rango dissoc inh = inhibitors of RanGTP-induced Rango-importin beta complex dissociation. Potency, µM (doses to about 46.1 µM), for inactives: top-dose activity change, negative = inhibition. hit rate 0.071% among 340,000. AID 540253. Biochemical FRET Rango-importin beta, RanGTP-induced dissociation; active means falling FRET ratio curve, often poorly fitted, with flat reads before Ran was added; inconclusive means other falling curves, or compound fluorescence or quenching; inactive means flat or rising ratio curve;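 also: potency is read from the fitted curve at half-maximal effect; % of control where 0% means no effect; nearly all actives have a fitted effect of over 45% in size; -100% = wells without RanGTP and RCC1; the record marks most hits as doubtful in a second field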
#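 Rango/importin beta premix (0.1/0.25 uM final), PBS + 1 mM DTT + 0.02% Tween-20 + 0.1% BSA; cpd 5 min RT; FRET pre-read; + RanGTP-RCC1 (0.6 uM Ran, 2 mM GTP, 0.2 uM RCC1); 45 min RT; FRET post-read, ex 430, em 486/530 nm.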
# Rango-impB inh = prevents formation of the Rango-importin beta complex; Q14974; Rango CFP/YFP FRET sensor + importin beta, 45 min; Potency, µM (top dose mostly 92.2 µM), for inactives: at the highest dose inhibition of complex formation; hit rate 0.031% among 340,000; AID 540263; active = rising FRET ratio curve, often small or poorly fitted; inconclusive = mostly compound fluorescence or quenching in the first reads; inactive = flat curves in all reads;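 also: potency is read from the fitted curve at half-maximal effect; 0% = DMSO wells and 100% = buffer wells lacking importin beta; nearly all actives have a fitted effect of over 15% in size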
# Target sequence (Q14974 whole entry, looked up): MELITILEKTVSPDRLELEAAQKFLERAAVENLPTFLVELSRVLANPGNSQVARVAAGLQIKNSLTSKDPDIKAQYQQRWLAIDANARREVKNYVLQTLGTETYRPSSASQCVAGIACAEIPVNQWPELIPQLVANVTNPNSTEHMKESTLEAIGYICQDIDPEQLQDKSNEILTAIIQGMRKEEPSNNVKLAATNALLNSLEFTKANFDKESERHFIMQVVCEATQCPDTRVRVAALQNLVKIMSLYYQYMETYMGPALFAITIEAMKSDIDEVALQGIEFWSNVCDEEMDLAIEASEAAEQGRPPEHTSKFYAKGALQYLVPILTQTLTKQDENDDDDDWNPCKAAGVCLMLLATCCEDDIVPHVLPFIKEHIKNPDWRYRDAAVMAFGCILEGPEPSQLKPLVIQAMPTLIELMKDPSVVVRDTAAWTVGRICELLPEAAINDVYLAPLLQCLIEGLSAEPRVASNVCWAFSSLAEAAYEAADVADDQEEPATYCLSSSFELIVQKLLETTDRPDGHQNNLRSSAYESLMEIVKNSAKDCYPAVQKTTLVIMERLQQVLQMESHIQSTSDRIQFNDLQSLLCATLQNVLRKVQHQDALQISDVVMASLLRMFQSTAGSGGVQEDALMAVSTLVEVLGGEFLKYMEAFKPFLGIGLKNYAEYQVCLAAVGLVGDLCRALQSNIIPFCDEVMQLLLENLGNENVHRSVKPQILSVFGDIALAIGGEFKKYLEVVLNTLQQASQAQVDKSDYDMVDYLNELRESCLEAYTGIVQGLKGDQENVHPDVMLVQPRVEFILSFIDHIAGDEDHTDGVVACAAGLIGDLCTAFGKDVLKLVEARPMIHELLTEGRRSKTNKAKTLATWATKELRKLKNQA
#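 FRET biosensor Rango (snurportin 1 IBB between N-terminal EYFP and C-terminal Cerulean), 50 nM in PBS/1 mM DTT/0.02% Tween-20/0.1% BSA, preincubated 5 min RT with compound; 0.125 microM importin beta added, 45 min RT, CFP/YFP FRET ratio read.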
# GLA inh pH 4.5 = alpha-galactosidase A (human) inhibition, pH 4.5; P06280; purified enzyme, 4-MU-alpha-Gal fluorescence, pH 4.5; activity change, negative = inhibition, % at 105 µM; 230,000 tested, under 10 active; inconclusive = small, poorly fitted or top-dose-only inhibition, or a rising curve; inactive = flat fitted curve, though single readings scatter; no compound was filed as active;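 also: 0% = full activity with enzyme and -100% = basal without enzyme; dose as in the result columns while the protocol names 77 µM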
# miR-21 FLuc = miR-21 reporter, rising signal. AID 2288. HeLa miR-21 FLuc reporter, luciferase, 48 h. Potency, µM (top dose mostly 38.3 µM), without a hit: at the highest dose reporter change, positive = more light. 340,000 tested, under 10 active; active = well fitted rising curve with a large enough effect; inconclusive = small, poorly fitted or top-dose-only effect; inactive = no such curve, though single readings can be large or run the other way;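 also: % of control where 0% means no effect; miR-21 action dims this reporter so a rising signal means less miR-21 action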
#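 HeLa cells stably expressing CMV-driven firefly luciferase with a downstream miR-21 binding sequence, endogenously expressing miR-21, were treated with titrations (up to about 40uM final) for 48 hours at 37 degree Celsius. Luciferase luminescence was read after lysis.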
# Numbers without * were called inactive; ? = inconclusive; nt = no result given. This is a subset. The share of hits here may be higher or lower than overall.
# Second line of a record: Rango dissoc inh, Rango-impB inh, GLA inh pH 4.5, miR-21 FLuc
- O=C(OCC(=O)N1CCc2ccccc21)C1=COCCO1
  -0.9%, -1.9%, -3.5, -34.6%
- CCn1c(SCC(=O)NCCc2ccc(Cl)cc2)nnc1-c1cccs1
  -8.8%, 10.9%, -4.4, -7.3%
- COc1ccc(NC(=O)CNC(=O)c2sc3ccccc3c2Cl)c(OC)c1
  13.9%, -1.9%, nt, nt
- Clc1nc(Cl)nc(-c2cn(-c3ccccc3)c3ccccc23)n1
  0.4%, -3.7%, -1.8, -3.3%
- CCOc1ccccc1NC(=O)C(=O)NCC1CCCN1CC (stereo unspecified)
  -11.2%, 1.2%, 5.6, 1.2%
- CCOC(=O)c1sc2nc(CC(=O)OC)nc(NCCN3CCOCC3)c2c1C
  -13.8%, -0.4%, 4.3, 1.6%
- O=C(NNS(=O)(=O)c1ccc(F)cc1)c1ccc(S(=O)(=O)N2CCCCC2)cc1
  8.0%, 5.0%, 3.0, -0.3%
- Cc1cc(C)c(C#N)c(SCC(=O)Nc2cccc(S(=O)(=O)N3CCCC3)c2)n1
  ?, ?, nt, nt
- COc1ccc([N+](=O)[O-])c(OC)c1C(=O)Nc1ccc(F)cc1F
  2.2%, -3.3%, -5.0, -1.4%
- COc1ccc(C2CC(c3ccccc3)Nc3nc(NS(C)(=O)=O)nn32)cc1 (stereo unspecified)
  5.2%, ?, -5.6, -0.5%
- COCCn1c(SCC(=O)Nc2ccc(OC)c(S(N)(=O)=O)c2)nc2ccccc21
  2.0%, 0.0%, 1.5, 12.5%
- O=C(CN1C(=O)C2CCCCC2C1=O)Nc1nccs1 (stereo unspecified)
  15.9%, 0.0%, 1.5, 1.0%
- C=CCCC(=O)NC1CC(C)(C)Cc2c1cnn2-c1ccc(OC)cc1 (stereo unspecified)
  0.6%, 2.2%, nt, -0.6%
- C[C@@H]1CCCCCCCCC(=O)OCCN(C(=O)OC(C)(C)C)[C@H](C)CCCCCCCCC(=O)OCCN(C(=O)OC(C)(C)C)[C@H](C)CCCCCCCCC(=O)OCCN1C(=O)OC(C)(C)C
  -14.8%, -1.7%, nt, nt
- CC1CC(C)(C)CC2(C1)NC(=O)N(CC(=O)N(Cc1ccccc1)c1ccccc1)C2=O (stereo unspecified)
  28.2%, 0.5%, nt, nt
- CC(Oc1ccc([N+](=O)[O-])cc1)C(=O)NCCCN1CCOCC1 (stereo unspecified)
  -5.5%, 0.2%, nt, -2.4%
- COC(=O)[C@@](C)(O)C1(C(=O)SC(C)(C)C)CC1
  3.7%, -0.4%, nt, nt
- CCC(Oc1ccccc1)C(=O)Nc1cc(C(F)(F)F)ccc1N1CCOCC1 (stereo unspecified)
  16.9%, -2.5%, nt, nt
- Cc1ccc(CCNC(=O)C2CCN(S(=O)(=O)c3c(C)nn(C)c3C)CC2)cc1
  -18.8%, ?, 4.8, -10.7%
- Oc1c(Cl)c(Cl)c2ncccc2c1Cl
  ?, ?, nt, nt
- O=C(NCc1ccccn1)C(=O)NCC1OCCN1S(=O)(=O)c1ccc([N+](=O)[O-])cc1 (stereo unspecified)
  -5.3%, 3.9%, nt, 0.0%
- Cn1cccc1C(=O)NC(=O)CSc1nnc(C2CC2)n1-c1ccccc1
  -13.7%, -4.7%, -4.2, 4.7%
- O=C(CCCN1C(=O)NC2(CCCC2)C1=O)Nc1ccc(Cl)c(S(=O)(=O)N2CCOCC2)c1
  2.9%, 2.6%, nt, nt
- O=C(NCc1ccccc1F)C1CCCN1C(=O)Nc1ccccc1 (stereo unspecified)
  11.0%, -3.3%, nt, -2.4%
- COc1ccc(Nc2nc(NCCN3CCOCC3)nc(Nc3ccc(OC)cc3)n2)cc1
  5.5%, -0.7%, nt, 2.7%
- CCCn1c(SC/C(O)=C(\C#N)c2nc3ccccc3[nH]2)n[nH]c1=O
  -16.9%, ?, 2.2, -6.4%
- CCN(Cc1nc2cc(Cl)ccc2c(=O)[nH]1)C(=O)c1cc(C2CC2)nn1-c1ccccc1
  -12.3%, 0.2%, nt, nt
- O=C1CC(NS(=O)(=O)c2ccccc2)CN1c1ccc2c(c1)OCCO2 (stereo unspecified)
  1.7%, -1.1%, nt, nt
- CCOC(=O)CC(N)c1ccc2c(c1)OCO2 (stereo unspecified)
  -2.3%, 0.5%, -4.3, -8.8%
- CCN1C(=O)[C@H]2[C@@H](c3ccc(C)cc3)N3C(=O)N(c4ccc(OC)cc4)C(=O)[C@@]3(Cc3ccc(Cl)cc3)[C@H]2C1=O
  2.2%, -2.9%, nt, 1.5%

# (next part)
# Second line of a record: Rango dissoc inh, Rango-impB inh, GLA inh pH 4.5, miR-21 FLuc
- COc1cccc(CN2CCN(CC#Cc3ccccc3)CC2CCO)c1 (stereo unspecified)
  4.3%, -2.5%, nt, -1.5%
- CN(CCOCCOc1ccc(F)cc1)Cc1ccccc1
  -2.5%, -2.7%, nt, -0.9%
- Cc1ccc(NC(=S)NCCN2CCOCC2)cc1C
  -1.0%, -1.7%, -7.6, -19.1%
- CC(C)Oc1cccc(C(=O)C2CCCN(C(=O)CCn3cnnn3)C2)c1 (stereo unspecified)
  16.6%, -1.5%, 0.6, -11.7%
- Cc1ccc(C)c(N(C(=O)CNC(=O)c2ccco2)C(C(=O)NC2CCCC2)c2ccncc2)c1 (stereo unspecified)
  3.7%, 2.1%, nt, -4.4%
- Cc1ccccc1NC(=O)c1cccc(N2C(=O)C3CCC(C)CC3C2=O)c1 (stereo unspecified)
  10.6%, -2.2%, nt, 1.8%
- NC(=O)c1ccccc1N=Cc1ccccn1
  -9.0%, -1.9%, 5.4, -1.0%
- O=C(CN1CCN(c2ccccn2)CC1)N1CC(O)CO1 (stereo unspecified)
  -15.6%, -1.3%, 2.7, 0.0%
- COc1ccc([N+](=O)[O-])cc1NC(=O)Nc1ccccc1
  1.1%, 0.4%, -16.2, ?
- Cc1ccc(S(=O)(=O)NC(C)(C)C)cc1C(=O)OCC(=O)N1CCCC1=O
  -8.5%, -3.6%, nt, nt
- Nc1ccc(C(=O)N2CCN(S(=O)(=O)c3ccc4c(c3)OCCCO4)CC2)cc1[N+](=O)[O-]
  21.9%, 9.9%, nt, nt
- C=CCn1c(-c2cccnc2Cl)nc2cc(Cl)c(Cl)cc21
  -1.8%, ?, -1.4, -27.9%
- Cc1nnc(NC(=O)c2c(F)c(F)c(F)c(F)c2F)s1
  -1.8%, 5.1%, 1.6, -5.1%
- NC(N)=N/N=C/c1cccc([N+](=O)[O-])c1O
  -3.6%, 2.8%, 2.2, -0.9%
- Cn1c(CN2CCN(C(=O)c3ccc(F)cc3)CC2)nc2cc([N+](=O)[O-])ccc21
  -26.6%, -4.0%, 1.6, 0.2%
- CC1CCN(c2nc(N(C)c3ccccc3)nc(N)c2[N+](=O)[O-])CC1
  -7.0%, 0.3%, -9.4, -37.6%
- O=C(COC(=O)c1ccc([N+](=O)[O-])o1)Nc1cccc(S(=O)(=O)N2CCOCC2)c1
  2.3%, -0.6%, 10.8, 10.0%
- Cc1nc(N2CCN(Cc3ccc4c(c3)OCO4)CC2)[nH]c(=O)c1C
  1.0%, -1.5%, nt, 0.8%
- S=C(NCCSCc1ccc(Cl)cc1)Nc1ccccc1
  -21.6%, 0.4%, -2.2, 13.8%
- CC1(C)O[C@@H]1COc1c2ccoc2cc2oc(=O)ccc12
  -3.3%, -2.4%, 6.7, -10.5%
- O=C(CCCCCn1c(=O)[nH]c2ccccc2c1=O)NCCc1c[nH]c2ccccc12
  -9.3%, -3.2%, 8.9, 10.1%
- O=C(CN1CCOCC1)Nc1nc(-c2ccccc2)cs1
  4.8%, 6.0%, nt, -3.5%
- C=CC[C@H](CC(=O)OC(C)(C)C)C(=O)OC[C@@H]1CCCN1C(=O)[C@@H](CC=C)CC(=O)NCCO
  -2.0%, 4.1%, nt, nt
- N#Cc1ccccc1N=C1CCCN1Cc1ccccc1
  14.8%, 0.0%, -0.9, -1.5%
- Fc1ccc(CN2CCCN(Cc3nc(-c4ccc5c(c4)OCO5)no3)CC2)cc1
  -11.1%, 3.9%, -4.7, -14.0%
- COc1ccc(NC(=O)c2ccc(S(=O)(=O)N3CCCCC3)cc2)cc1OC
  19.9%, 1.6%, nt, nt
- O=C(CSc1nc2ccc([N+](=O)[O-])cc2[nH]1)NCCc1ccccc1
  0.0%, 0.7%, 2.5, 9.2%
- Cc1ccc(CCNC(=O)C2=CCN(S(=O)(=O)c3ccccc3)CC2)cc1
  -6.2%, 2.0%, nt, 5.0%
- NC(=O)c1ccccc1Nc1nc2nc3ccccc3c(=O)n2cc1Br
  -2.8%, 0.0%, -1.6, -11.0%
- COc1ccc(C2C3=C(CC(C)(C)CC3=O)Oc3ncn(CC(C)C)c(=N)c32)cc1 (stereo unspecified)
  -1.0%, 0.4%, 10.5, 9.5%

# Other records:
# Second line of a record: Rango dissoc inh, Rango-impB inh, GLA inh pH 4.5, miR-21 FLuc
- Cn1c(Cn2c(=O)sc3ccccc32)nnc1SCc1cccc(F)c1
  34.9%, 3.1%, 1.7, -3.2%
- O=C1C(C=NCCN2CCOCC2)=C(O)c2ccccc21
  -10.7%, -0.1%, 5.0, -66.9%
- Cc1nc2ncccn2c1-c1csc(Nc2ccc(O)cc2)n1
  17.6%, -0.4%, -2.7, -7.7%
- C/C(Cn1nnc([N+](=O)[O-])n1)=N\NC(=O)c1ccc(O)cc1O
  9.5%, 0.5%, -6.8, ?
- CC(=O)c1ccc(OCCCCCCCOc2ccc(C(C)=O)cc2)cc1
  -14.5%, 3.0%, nt, 1.7%
- O=C(COC(=O)c1cccc(OC(F)F)c1)NC1CCCC1
  3.8%, -0.7%, nt, -0.5%
- Nc1c(-c2ccc(Cl)cc2)cnc2c(-c3ccccc3)cnn12
  16.2%, 2.0%, nt, -70.2%
- COc1ccc(C2=NOC(Cn3nc(-c4ccccc4C)cc3C(=O)O)C2)cc1 (stereo unspecified)
  9.1%, 0.1%, nt, nt
- CCOc1ccccc1Nc1nnc(SCC(=O)NC2CCS(=O)(=O)C2)s1 (stereo unspecified)
  8.6%, -1.0%, nt, nt
- O=C(Cn1c(NCCO)nc2ccccc21)Nc1ccc2c(c1)OCCCO2
  -0.9%, -3.7%, nt, nt
- Cc1csc(=O)n1CCC(=O)O
  8.7%, 1.2%, 4.3, -0.3%
- COc1ccc2c(COC(=O)[C@@H]3CCCN3S(=O)(=O)c3ccc(Cl)cc3)cc(=O)oc2c1
  -3.1%, -4.1%, nt, nt
- Cc1nonc1NC(=O)CSc1nc2ccc(Cl)cc2[nH]1
  -18.2%, 5.8%, nt, -0.6%
- O=c1c(Cl)c(NCC2CCCO2)cnn1C12CC3CC(CC(C3)C1)C2 (stereo unspecified)
  -12.2%, 2.4%, 4.6, -1.4%
- O=C(Nc1ccccn1)C(=O)N1CCCCC1
  -6.0%, -1.9%, 3.2, -24.7%
- CCc1nnc(NC(=O)c2ccc3c(c2)C(=O)N(CC)C3=O)s1
  -5.2%, ?, nt, nt
- CCCSc1nc2c([nH]1)c(=O)n(C)c(=S)n2C
  -16.6%, 0.9%, nt, nt
- COC(=O)Cc1cc(=O)[nH]c(/N=C(\N)Nc2ccc(C(C)C)cc2)n1
  0.3%, 7.6%, -12.6, 2.2%
- Cc1cc(NC(=O)COC(=O)c2nccnc2N)n(-c2ccccc2)n1
  3.4%, 0.9%, nt, nt
- CCN(CC)C(=O)[C@H]1C[C@H](CC(=O)NCCC2=CCCCC2)C(=O)N2CCc3c([nH]c4cc(CCC(=O)N(C)C)ccc34)[C@]12C
  -2.3%, -0.3%, nt, nt
- Cn1nnnc1SCCNC(=O)C1CCC(=O)N(CCc2ccccc2)C1 (stereo unspecified)
  4.0%, 6.5%, nt, 5.4%
- COc1ccc(Cn2nnnc2C(c2cc3cc(C)ccc3[nH]c2=O)N2CCOCC2)cc1 (stereo unspecified)
  -11.4%, -0.2%, -0.3, 2.4%
- CC(C)n1cnc2c(=S)nc[nH]c21
  10.7%, 0.2%, -6.0, -3.1%
- CN(NS(=O)(=O)c1cccs1)c1ncc(C(F)(F)F)cc1Cl
  4.9%, -0.5%, nt, -5.3%
